# Source: PubChem BioAssay
# CtBP-E1A inh: blocks the CtBP interaction with E1A; AlphaScreen GST-E1A/His-CtBP binding, 1536-well; hits give low values; control for the full effect not named in the record; activity change, % (test concentration not listed); hit rate 0.49% among 340,000; AID 651724; in the data active means activity change below about -65%; inconclusive means about -30% to -65%; inactive means above about -30%; further: on the % scale 0 is the no-effect control and ±100 the full control effect; compound concentration not given in the record
#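 Steps: dispense buffer (Tris pH 8.0, NaCl 300 mM, TCEP 1 mM, BSA, Tween 20); add 5X protein mix (GST-E1A, His-CtBP, 125 nM each); pin 23 nL compound; 2 h at 37 °C, dark; add 5X beads (50 ug/mL); 1 h; read.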
# TRPML1 blocker: inhibitors of human TRPML1 channel; Q9GZU1; TRPML1-inducible cells, Ca2+ dye fluorescence, FDSS; hits give low values; inhibition of EC80 agonist-evoked calcium signal; activity change, negative = inhibition, % (concentration not given with the values); hit rate 0.02% among 390,000; AID 624415; in the data active means activity change below about -50%; inconclusive means about -30% to -50%; inactive means above about -30%;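 further: stimulus is agonist 54-4 at its EC80 concentration; on the % scale 0 is the no-effect control and ±100 the full control effect; compound concentration not given in the record; the text of the record puts the active cut at -80%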
# Target sequence (Q9GZU1 whole entry, looked up): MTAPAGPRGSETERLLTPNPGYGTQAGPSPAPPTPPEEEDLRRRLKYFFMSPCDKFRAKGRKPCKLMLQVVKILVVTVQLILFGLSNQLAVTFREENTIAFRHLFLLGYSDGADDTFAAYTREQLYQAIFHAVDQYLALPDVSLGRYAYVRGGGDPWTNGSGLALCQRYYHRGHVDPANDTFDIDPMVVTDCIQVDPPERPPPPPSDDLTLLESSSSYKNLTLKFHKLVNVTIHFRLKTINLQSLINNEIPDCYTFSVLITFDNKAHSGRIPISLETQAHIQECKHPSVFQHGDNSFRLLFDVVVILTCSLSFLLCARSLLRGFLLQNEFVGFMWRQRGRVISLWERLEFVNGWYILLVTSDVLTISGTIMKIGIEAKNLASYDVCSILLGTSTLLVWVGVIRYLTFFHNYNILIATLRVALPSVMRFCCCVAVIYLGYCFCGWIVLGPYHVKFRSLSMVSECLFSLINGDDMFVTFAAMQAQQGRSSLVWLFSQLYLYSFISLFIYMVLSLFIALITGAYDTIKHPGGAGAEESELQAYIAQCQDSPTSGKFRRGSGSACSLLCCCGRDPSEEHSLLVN
#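 TRPML1-DL cells, Tet-induced overnight (~16 h, 37 °C) at 1,500 cells/well, were loaded with Ca8 no-wash dye plus quencher for 45-90 min at room temperature. Compounds were pinned during FDSS kinetic reading; agonist 54-4 at EC80 (4 uM final) then added.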
# PINK1 modulator: PINK1 expression modulation; PINK1 immunofluorescence, high-content cytometry, 24 h; Potency, µM (top dose mostly 76.6 µM), for the others: at the top dose activation (PINK1 increase), actives largely listed as activators; hit rate 0.2% among 410,000; active = well fitted activation curve with a large enough effect; inconclusive = small, poorly fitted or top-dose-only effect; inactive = flat fitted curve, though single readings scatter; cell line not stated here;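 further: potency means the concentration at half of the fitted maximal effect; % of control where 0% means no effect; nearly all actives have a fitted effect of over 65% in size; a mitochondrial uncoupler was the plate control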
#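 Stable cell line, 250 cells/well, 12 h attachment; compounds pinned at 5 concentrations, 24 h; CCCP control. Fixed with nuclear dye, primary antibodies 12 h at 10 degrees C, secondary plus cell stain; laser-scanning cytometer read.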
# D2 ag: human D2 receptor agonism in beta-arrestin assay; P14416; DiscoveRx PathHunter D2 beta-arrestin, luminescence, 90 min; 100% = 57 uM dopamine signal; activation, % (concentration not given with the values); hit rate 0.084% among 360,000; in the data active = activation above about 40%; inconclusive = about 15% to 40%; inactive = below about 15%; further: compound concentration not given in the record; the text of the record calls up to 30% inactive
# Target sequence (P14416 whole entry, looked up): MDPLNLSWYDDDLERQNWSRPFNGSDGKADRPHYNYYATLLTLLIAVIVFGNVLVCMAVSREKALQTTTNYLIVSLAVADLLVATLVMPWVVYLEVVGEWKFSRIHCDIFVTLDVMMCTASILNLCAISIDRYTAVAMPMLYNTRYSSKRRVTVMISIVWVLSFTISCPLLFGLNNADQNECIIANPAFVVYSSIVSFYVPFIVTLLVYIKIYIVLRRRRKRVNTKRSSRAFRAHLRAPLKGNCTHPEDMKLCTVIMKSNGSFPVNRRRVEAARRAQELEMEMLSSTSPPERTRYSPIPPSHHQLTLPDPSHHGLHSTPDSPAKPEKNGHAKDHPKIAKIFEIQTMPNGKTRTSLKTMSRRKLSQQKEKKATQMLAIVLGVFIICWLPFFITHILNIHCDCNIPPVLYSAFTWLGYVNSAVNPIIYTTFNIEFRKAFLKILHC
#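 DiscoveRx PathHunter D2 beta-arrestin cells (2,100/well) attached overnight, then compound-stimulated 90 min at 37 C in HBSS/10 mM HEPES/0.1% Tween-20 buffer; beta-galactosidase complementation read by luminescence after 1 h at ambient temperature. Dopamine 57 uM final (EC100) as control.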
# TRPML1 agonist: activates the human TRPML1 channel; Q9GZU1; activation, % (test concentration not listed); hit rate 0.12% among 410,000; AID 624414; TRPML1-expressing cells, Ca2+ dye fluorescence, FDSS; host cell line not named in the record; reference of the full effect not given here; in the data active = activation above about 50%; inconclusive = about 30% to 50%; inactive = below about 30%; further: 0% is about no effect; the text of the record puts the active cut at 80%
#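 In this qHTS format, compounds were pin-transferred onto Ca8-dye-loaded TRPML1-DL cells induced with Tet overnight, and intracellular Ca2+ fluorescence was recorded kinetically for 110 s after a 10 s baseline. A subsequent 4uM final 54-4 (EC80) addition followed by a second 110 s read served as the antagonist phase.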
# Six1-Eya2 blk: inhibitors of human Six1/Eya2 interaction. AlphaScreen GST-Six1/His-Eya2 binding, biochemical; hits give low values; control for the full effect not named in the record. activity change, % (no concentration beside the values). hit rate 0.56% among 360,000. Q15475+O00167. AID 651725; in the data active = activity change below about -65%; inconclusive = about -30% to -65%; inactive = above about -30%; further: on the % scale 0 is the no-effect control and ±100 the full control effect; compound concentration not given in the record
#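 Compounds are tested against tagged Six1 and Eya2 proteins bridged by glutathione donor and nickel acceptor beads; after a one-hour incubation at 37 °C without light, AlphaScreen emission is recorded.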
# * = called active by the depositor; ? = inconclusive; nt = not tested or not shown; & = joins results of further samples; [ ] = another dose, or the depositor's remark.
SMILES,CtBP-E1A inh,TRPML1 blocker,PINK1 modulator,D2 ag,TRPML1 agonist,Six1-Eya2 blk
O=[N+]([O-])c1cc(Cl)ccc1NCCNS(=O)(=O)c1ccccc1,?,13,0.9%,-6.3,2.0,-25
O=C(CSc1nnc(-c2c[nH]c3ccccc23)o1)N1c2ccccc2CCc2ccccc21,8,-8,0.1%[38.3 µM],3.1,1.3,-17
OCCN1CCN(C(=S)c2ccc(Br)cc2)CC1,-14,-6,1.3%,-3.4,0.6,1
Cc1cccc(NC(=O)C2(C)CC3c4ccccc4C2c2ccccc23)c1C (stereo unspecified),-2,-2,5.7%,-3.9,8.8,3
Cn1nc(C(=O)Nc2ccccc2C#N)c2c1-c1ccccc1SC2,nt,2,1.6%,nt,-0.3,nt
Cc1ccc(S(=O)(=O)N(CCC(=O)Nc2ccc(OC(F)(F)F)cc2)c2ccccc2)cc1,34,13,0.5%,-3.7,1.1,25
Cc1ccc(Cn2ccn(Cc3ccccc3C)c(=O)c2=O)cc1,nt,6,5.6%,nt,-0.1,nt
Cc1cc(C(=O)C(C)Sc2cccc[n+]2[O-])c(C)n1-c1ccc(Cl)cc1 (stereo unspecified),8,25,2.1%,-2.3,1.8,-21
Fc1ccc(Nc2nc(-c3cccnc3)cs2)cc1,1,nt,0.1%,-2.1,nt,-1
Cc1cc(=O)[nH]c(SCC(=O)N2CCCCC2)n1,nt,nt,1.3%,-4.0,nt,6
COc1c2ccoc2nc2c(OC)c(O)ccc12,-3,-1,0.0%,-1.4,0.2,-24
CSc1cccc(NC(=O)COC(=O)C2CCN(S(=O)(=O)c3ccccc3)CC2)c1,0,10,0.3%,0.8,-0.2,-2
Cc1csc2nc(CCNS(=O)(=O)c3ccc4c(c3)OCCO4)cn12,10,0,3.4%,0.2,-0.2,2
CC1CCCCN1CCCNC(=O)c1cc(Br)c(Br)[nH]1 (stereo unspecified),0,-8,-1.2%,-0.8,-0.2,-8
CN(C(=S)NCCN1CCOCC1)C(c1ccccc1)c1ccccc1,nt,25,-1.1%,-5.7,1.1,2
Cc1c(-n2c(SCC(=O)NC(C)C(C)C)nc3ccccc3c2=O)c(=O)n(-c2ccccc2)n1C (stereo unspecified),5,12,1.8%,1.3,-0.8,0
O=C(CSCc1ccc(Cl)cc1)N/N=C/c1ccccc1,1,31,3.3%,-3.1,1.7,0
O=C(CN1C(=O)NC(CCc2ccccc2)C1=O)Nc1ccc(F)c(F)c1F (stereo unspecified),-15,-8,5.1%,-1.9,0.7,6
O=C(NC1CCSC1=O)c1ccc(Oc2cccc(C(F)(F)F)c2)nc1 (stereo unspecified),5,30,-0.6%,-2.2,-0.4,24
CCOC(=O)NC(=O)/C(N=Nc1cccc(C(F)(F)F)c1)=C(\C)O,3,37,4.3%,0.2,2.7,8
Cc1cc(C(C)(C)C)ccc1OCCN(C)C,1,7,-0.2%,-2.0,-0.2,14
O=C(N/N=C/c1ccccc1O)C1CCCC1,?,4,-1.3%,-3.1,-0.7,-20
O=C1C=C(c2cccc(Br)c2)C[C@@H](c2ccc3c(c2)OCO3)C1,-7,26,0.6%,5.1,2.4,-14
COc1ccc(C)cc1NC(=O)CCC(=O)Nc1ccc2nc(N3CCN(C)CC3)cc(C)c2c1,3,-4,-30%[38.3 µM],-1.1,-0.7,-9
Cc1ccc(S(=O)(=O)N2CCCCC2)cc1NC(=O)COC(=O)c1ccc(O)cc1,3,43,2.6%,1.5,1.6,-4
CCOc1ccc(OCC)c(NC(=O)c2nnn(Cc3cc(Br)ccc3OC)c2N)c1,nt,55,0.8%,nt,0.0,nt
CC1(C(=O)N2Cc3ccccc3C2)CCN1C(=O)C1(c2ccccc2)CC1 (stereo unspecified),5,nt,-0.4%,-1.6,-0.7,-3
Cc1cc(C)c(NC(=O)CS(=O)CC(=O)Nc2ccc(F)cc2F)c(C)c1 (stereo unspecified),-10,-27,0.7%,-2.8,-0.2,0
CCCc1nc2sc3c(c2c(=O)n1NC(=O)CCCl)CCCC3,-4,4,-1.7%,-4.9,-0.4,-8
COc1ccccc1-c1nn(Cc2ccccc2)cc1C(=O)NCC(c1ccco1)N1CCCC1 (stereo unspecified),-3,-1,0.7%,-0.1,-0.7,0
CC(=O)Nc1cccc(NC(=O)CSc2ccc3nnc(CCNC(=O)c4ccccc4)n3n2)c1,6,-1,1.7%,-2.4,-0.2,4
Cc1ccc(NC(=O)c2cc(S(=O)(=O)N3CCCCC3)ccc2N2CCOCC2)cc1F,-1,28,-0.4%,-3.6,-0.5,-3
CCN(c1cc(C)cc(C)c1)S(=O)(=O)c1nnc(NC(=O)c2ccccc2C)s1,nt,25,2.7%,nt,-0.3,nt
COc1ccc(C2C=C(c3cccc(OC)c3)Nc3c(C(=O)Nc4ccccc4)cnn32)cc1 (stereo unspecified),nt,13,0.8%,nt,0.3,nt
OCC1(c2cc(C(F)(F)F)n[nH]2)CCCCC1,4,13,-1.5%[38.3 µM],2.0,0.1,-1
COCCCN(C(=S)Nc1cc(C)cc(C)c1)C(C)c1ccncc1 (stereo unspecified),1,-19,2.3%,-1.4,1.9,4
COc1ccccc1N1CCN(C(=O)CSc2nnc(C)n2C2CC2)CC1,-15,-28,-0.8%,-5.5,0.1,-2
O=C(NNC(=O)c1ccncc1)Nc1ccc([N+](=O)[O-])cc1,-5,35,0.4%,0.2,0.2,7
Cc1cccc(NC(=O)CNC(=O)CN2C(=O)NC3(CCCCC3C)C2=O)c1C (stereo unspecified),7,-9,-1.2%,-3.2,-0.2,6
COc1ccc(C(=O)/C=C/C(=O)N(Cc2ccc3c(c2)OCO3)C(C(=O)NC2CCCCC2)c2ccncc2)c(O)c1 (stereo unspecified),-1,-3,6.4%,0.1,-0.2,-8
Cc1ccc(S(=O)(=O)N=S(CCO)CCO)cc1,2,-11,-0.5%,-3.0,0.3,6
O=C(CN1C(=O)c2ccccc2S1(=O)=O)Nc1ccon1,-6,27,-0.1%,-3.7,-0.2,9
CCc1ccccc1S(=O)(=O)c1c(C)cc(C)nc1Cl,nt,7,4.0%,-0.8,2.6,11
COc1cc(NC(=O)c2ccccc2)c(OC)cc1NC(=O)CN1CCCCC1,-19,-14,-0.3%,0.3,0.2,-22
COc1ccc(C(=O)N2CCC(NC(=O)C(Cc3ccccc3OC)NC(C)=O)CC2)cc1 (stereo unspecified),6,3,2.3%,-14,-0.2,3
Cc1ccccc1NC(=O)NC(N)=O,nt,-6,0.7%,5.7,2.5,0
O/N=C/CCn1c(=S)sc2ccccc21,8,-11,2.0%[38.3 µM],-2.9,0.3,7
O=[N+]([O-])c1ccc(C=NN=Cc2ccc([N+](=O)[O-])cc2)cc1,6,4,16%,2.7,-0.5,1
CC(=O)N/N=C(\C)c1ccc(Br)cc1Br,7,-28,0.6%,5.2,1.2,8
O=C(NCCN1CCC(n2c(=O)[nH]c3ccccc32)CC1)c1ccccc1Cl,1,nt,-0.1%,nt,-0.8,8

# Remaining list, next part
SMILES,CtBP-E1A inh,TRPML1 blocker,PINK1 modulator,D2 ag,TRPML1 agonist,Six1-Eya2 blk
Cc1ccc(N2CC(C(=O)N3CCN(Cc4ccc5c(c4)OCO5)CC3)CC2=O)cc1 (stereo unspecified),0,30,1.5%,-3.2,-1.4,-19
COC(=O)Cn1c(=O)c2c(n(Cc3ccccc3)c1=O)N/C(=C/c1ccc(OC)cc1)C2=O,22,7,2.1%,-0.7,2.2,-1
c1cnc2ccc3c(c2c1)COCO3,0,-13,-2.8%,-1.4,-0.4,-8
Cc1csc(SCC(=O)Nc2c(C)n(C)n(-c3ccccc3)c2=O)n1,-5,43,0.4%,-1.7,-0.1,-8
CCOC(=O)[C@H]1[C@H]2COc3ccc(Br)cc3[C@@H]2N2C(=O)N(c3ccc(F)cc3)C(=O)[C@@]12C,3,49,0.7%,2.8,2.4,1
Cc1cn([C@H]2C[C@H](O)[C@@H](CNCc3cc(Cl)ccc3OCc3ccc(Cl)cc3)O2)c(=O)[nH]c1=O,0,1,-1.5%,-3.3,-0.8,3
COc1ccc(S(=O)(=O)Nc2cc(C)on2)cc1OC,7,44,-1.0%,-3.0,-0.5,5
CCC(C)NS(=O)(=O)c1cccs1 (stereo unspecified),-5,1,0.3%,-1.2,-0.1,0
Cc1coc2c1c(C)cc1oc(=O)c(CC(=O)NCCC(=O)O)c(C)c12,nt,-4,0.6%,-5.2,0.6,-3
O=C(NC(c1ccc(Cl)cc1)c1cnccn1)C1CCN(Cc2ccc(Cl)cc2)CC1 (stereo unspecified),0,nt,1.0%,-2.4,1.4,-10

# Part of the list above, field by field.
c1cnc2ccc3c(c2c1)COCO3
- CtBP-E1A inh: 0
- TRPML1 blocker: -13
- PINK1 modulator: -2.8%
- D2 ag: -1.4
- TRPML1 agonist: -0.4
- Six1-Eya2 blk: -8

COc1ccc(S(=O)(=O)Nc2cc(C)on2)cc1OC
- CtBP-E1A inh: 7
- TRPML1 blocker: 44
- PINK1 modulator: -1.0%
- D2 ag: -3.0
- TRPML1 agonist: -0.5
- Six1-Eya2 blk: 5

# Going on with the list.
SMILES,CtBP-E1A inh,TRPML1 blocker,PINK1 modulator,D2 ag,TRPML1 agonist,Six1-Eya2 blk
CCc1ccccc1NC(=O)C1NC(=O)CC1c1ccccc1 (stereo unspecified),6,-1,0.1%,-0.1,0.4,5
COc1ccc(C)cc1NC(=O)CN1CCN(CC(=O)Nc2ccccc2F)CC1,2,10&8,0.4%&0.4%,3.0,0.7&0.4,-4
CCOC(=O)C1(c2ccccc2)CCCNC1=O (stereo unspecified),0,-20,2.0%,-5.1,-0.2,27
Cc1noc(C)c1CSc1nnc(-c2cc(Cl)ccc2Cl)n1N,1,0,0.4%,-3.1,-0.2,-4
CCOc1ccc(NC(=O)c2noc3c2CSc2ccccc2-3)cc1,nt,-19,1.2%,nt,1.0,nt
COc1ccc(CCn2c(N)c(C(=O)NCc3ccco3)c3nc4ccccc4nc32)cc1OC,-22,-1,-2.6%[38.3 µM],-2.5,0.1,-25
O=C1C=CC(n2cc(F)c(=O)[nH]c2=O)O1 (stereo unspecified),-16,31,2.9%,-2.6,1.1,-11
Cc1ccn(CC(=O)N2CCCC(N3CCN(c4cccc(Cl)c4)CC3)C2)n1 (stereo unspecified),4,0,0.2%,-0.2,-0.4,-2
COCCNC(=S)NNc1ccc(Cl)c(C(=O)O)c1,1,nt,2.1%,11,nt,4
CN(C)CC[n+]1ccc(C(=O)c2ccccc2)cc1,1,13,2.6%,8.8,-0.3,-15
COc1ccc(Br)cc1C(=O)Nc1ccc(O)cc1,?,-5,-2.5%[38.3 µM],-1.3,0.9,-22
Cc1nn(Cc2ccccc2)c(Cl)c1/C=C/C(=O)OCC(=O)N(C)C1CCS(=O)(=O)C1 (stereo unspecified),nt,-5,1.5%,-0.2,0.9,-1
Cn1c(=O)oc2cc(S(=O)(=O)Nc3ccc(C(=O)O)cc3)ccc21,3,15&-6,-2.3%&-0.6%,-1.1,0.2&-0.2,-4
Cc1cc(N2CCN(C)CC2)nc2ccc(NC(=S)N3CCCCCC3)cc12,nt,3,-0.9%,-3.4,0.4,0
